# GIRK2 activ – activators of human GIRK2 potassium channels; HEK293-GIRK2 thallium flux, Thallos fluorescence; AID 1259325, 2017; G protein-activated inward rectifier potassium channel 2 (Homo sapiens), P48051; 63,000 compounds, 0.05% hits; calls only for hits at 25 µM;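 active = among the strongest 0.2% of first-round signals and kept after retests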;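 also: first round at about 10 µM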
# Target sequence (P48051 whole entry, looked up): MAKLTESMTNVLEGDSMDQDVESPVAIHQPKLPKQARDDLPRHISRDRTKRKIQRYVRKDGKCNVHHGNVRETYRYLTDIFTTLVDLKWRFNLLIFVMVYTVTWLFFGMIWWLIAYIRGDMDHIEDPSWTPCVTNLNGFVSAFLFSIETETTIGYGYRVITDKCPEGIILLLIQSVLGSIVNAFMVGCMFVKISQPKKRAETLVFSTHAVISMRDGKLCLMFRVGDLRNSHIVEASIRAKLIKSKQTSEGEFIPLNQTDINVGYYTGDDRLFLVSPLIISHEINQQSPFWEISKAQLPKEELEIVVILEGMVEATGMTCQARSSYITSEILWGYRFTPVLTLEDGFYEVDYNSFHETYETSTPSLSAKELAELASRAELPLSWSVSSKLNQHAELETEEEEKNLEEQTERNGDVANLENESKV
# Calls only; i = inactive.
# Sample of the layout:
cpd	compound	GIRK2 activ
1	Cc1nc(-c2ccccc2Cl)sc1CNC(=O)c1ccc(Cn2ccnc2)cc1	i
2	O=C(Cc1nnc(-c2cccc(Br)c2)o1)NCc1cc(F)cc(F)c1	i
3	O=C(COc1ccccc1F)NCCn1ncccc1=O	i
4	CCCCC[C@H](O)/C=C/[C@@H]1[C@@H](CCCCCCC(=O)O)[C@@H](O)C[C@H]1O	i
5	O=C(Cn1c(=O)c2ccc(Cl)cc2n2nncc12)Nc1ccc(Oc2ccccc2)cc1	i
6	O=C(CCC1CCCC1)NCC1CCN(c2ncccn2)CC1	i

# Results, previewed entries included:
cpd	compound	GIRK2 activ
1	Cc1nc(-c2ccccc2Cl)sc1CNC(=O)c1ccc(Cn2ccnc2)cc1	i
2	O=C(Cc1nnc(-c2cccc(Br)c2)o1)NCc1cc(F)cc(F)c1	i
3	O=C(COc1ccccc1F)NCCn1ncccc1=O	i
4	CCCCC[C@H](O)/C=C/[C@@H]1[C@@H](CCCCCCC(=O)O)[C@@H](O)C[C@H]1O	i
5	O=C(Cn1c(=O)c2ccc(Cl)cc2n2nncc12)Nc1ccc(Oc2ccccc2)cc1	i
6	O=C(CCC1CCCC1)NCC1CCN(c2ncccn2)CC1	i
7	COc1ccc(C2=C(c3cn(C)c4ccccc34)C(=O)NC2=O)cc1OC	i
8	CCOC(=O)C1CCCN(C(=O)c2ccc(NC(=O)c3cn(C)nc3OC)cc2)C1 (configuration not stated)	i
9	Cc1ccc(C)c(S(=O)(=O)c2cnc(SCC(=O)Nc3cc(F)ccc3F)[nH]c2=O)c1	i
10	Cc1c(CNS(=O)(=O)N(C)C)sc2nc(-c3ccc(F)cc3)cn12	i
11	COc1cccc(NC(=O)NCC(C)(O)c2ccco2)c1OC (configuration not stated)	i
12	CCc1nc(-c2ccc(N3CCN(C(=O)c4ccsc4)CC3)nc2)no1	i
13	O=c1cc(-c2ccc(O)cc2)oc2c(C3OC(CO)C(O)C(O)C3O)c(O)c(C3OCC(O)C(O)C3O)c(O)c12 (configuration not stated)	i
14	O=C(NCc1ccc(F)cc1)N1CC(c2nc(-c3cccc(Cl)c3)no2)C1	i
15	Cc1ccc(-c2csc(-n3nc(C)cc3NC(=O)c3ccc(F)cc3F)n2)cc1	i
16	CCOC(=O)c1cnn2ccc(NC(=O)c3c[nH]c4ccccc34)cc12	i
17	CC(=O)N1CCc2c(sc(NC(=O)c3ccc(C(C)(C)C)cc3)c2-c2nc3ccccc3s2)C1	i
18	COc1ccc(CC(=O)Nc2cc(C)nn2-c2nc3c(cnn3-c3ccc(Cl)cc3)c(=O)[nH]2)cc1	i
19	COCCNC(=O)c1c(N)n(/N=C\c2ccc(C)cc2)c2nc3ccccc3nc12	i
20	O=C(CN1CC(c2nc(-c3cccs3)no2)C1)Nc1ccc(OC(F)(F)F)cc1	i
21	CCSc1nc2n(n1)C(c1ccc(OC)c(OC)c1)C(C(=O)Nc1ccccc1OC)=C(C)N2 (configuration not stated)	i
22	CC(Cc1ccco1)NS(=O)(=O)c1ccccc1Br (configuration not stated)	i
23	Cc1c(Cl)cccc1S(=O)(=O)N(Cc1cccs1)Cc1cccn1C	i
24	CCn1c(=N)c(S(=O)(=O)c2ccc(F)cc2)cc2c(=O)n3cc(C)ccc3nc21	i
25	COc1ccc(C23CC4CC(CC(C4)C2)C3)cc1C(=O)N1CCOCC1	i
26	O=C(NCC1(CO)CC1)C1c2ccccc2Oc2ccccc21	i
27	Cc1ccc2cc(CCNC(=O)c3ccc(S(=O)(=O)N(C)C)cc3)c(=O)[nH]c2c1	i
28	O=C(c1ccccc1Cl)N1CCN(Cc2nc(C3CC3)cs2)CC1	i
29	COC(=O)c1ccc(NC(=O)Cn2nc3ccc(S(=O)(=O)c4ccccc4)nn3c2=O)cc1	i
30	C[C@]12C[C@H](O)[C@H]3[C@@H](CCC4=CC(=O)CC[C@@]43C)[C@@H]1CC[C@@H]2C(=O)CO	i
31	O=C(Nc1cccc2cnccc12)c1ccc(S(=O)(=O)N2CCCCC2)cc1	i
32	O=C(Nc1cccc(Cl)c1)c1nc(-c2cn(-c3ccc(F)cc3)nn2)no1	i
33	COc1ccc(NC(=O)CSc2cc(-n3nc(C)cc3C)ncn2)c(OC)c1	i
34	COCCCNc1nc2ccccc2nc1NS(=O)(=O)c1ccc(OC)cc1	i
35	COc1cc(-c2c(C#N)c(N)nc3c2c(C)nn3-c2ccc(C)cc2)ccc1O	i
36	CNC(=O)CSc1nnc(N2CCN(C(=O)c3snnc3C)CC2)s1	i
37	O=C(NCCn1ncccc1=O)c1cc(Cl)ccc1Cl	i
38	O=C(CSC1CCCC1)Nc1ccc2cn[nH]c2c1	i
39	COc1cccc(N2CCN(S(=O)(=O)c3ccsc3C(=O)NC3CCCCCC3)CC2)c1	i
40	CC(C(=O)NCCc1cccs1)n1nc(-c2ccccc2)ccc1=O (configuration not stated)	i
41	Cc1ccnc(Nc2cc(NCCNC(=O)Nc3cccc(Cl)c3)ncn2)c1	i
42	CCOC(=O)c1c(S(=O)(=O)NCc2ccc(F)cc2)n[nH]c1CC	i
43	CCOc1cc(S(=O)(=O)N(C)C2CCCCC2)c(OCC)cc1C	i
44	COC(=O)c1ccccc1NC(=O)CCc1ccc(-c2ccccc2)o1	i
45	Cc1cc(C)n(CCNC(=O)CSCc2ccccc2)n1	i
46	O=c1c(NCc2ccccc2)nccn1Cc1ccc(Cl)cc1	i
47	COc1ccccc1-n1ccnc(NCc2ccc3c(c2)OCO3)c1=O	i
48	Cc1cc(C)c(C#N)c(SCc2cc(=O)oc3ccc(O)cc23)n1	i
49	COc1cccc2sc(N3CC(C(=O)NCC(F)(F)F)C3)nc12	i
50	Cc1ccc(S(=O)(=O)c2c(C)nn(-c3ccccc3)c2OC(=O)CC(C)C)cc1	i
51	Cc1nn(C)cc1S(=O)(=O)Nc1ccc(S(=O)(=O)Nc2nccs2)cc1	i
52	COCCN1CCC(CNC(=O)CSc2ccc(F)cc2)CC1	i
53	CC(C)(C)S(=O)(=O)c1ccc(N2CCN(c3ccc(Cl)cc3)CC2)nn1	i
54	Cc1ccc(-n2ncc3c(=O)n(Cc4nc(-c5ccc(OC(F)(F)F)cc5)no4)cnc32)cc1	i
55	Cc1cc(=O)c2c(O)c3c(cc2o1)OC(C(C)(C)OC1OC(CO)C(O)C(O)C1O)C3 (configuration not stated)	i
56	CC1CCCCN1C(=O)C(=O)c1c[nH]c2ccccc12 (configuration not stated)	i

# Following part
cpd	compound	GIRK2 activ
57	Cc1csc(-c2cc3ccc(OC(=O)N4CCOCC4)cc3oc2=O)n1	i
58	O=C(c1ccsc1)N1CC(c2nc(C3CC3)no2)C1	i
59	CC(C)N(Cc1ccccc1)C(=O)C(=O)c1cn(CC(=O)N2CCCCC2)c2ccccc12	i
60	CN(C)C(CNC(=O)NCc1cccs1)c1ccc2c(c1)CCO2 (configuration not stated)	i
61	CCCCNC(=O)c1ccc(-n2ccnc2SCC(=O)Nc2ccc3c(c2)OCO3)cc1	i
62	Cc1ccc(Cn2c(=O)c3ccccc3n(Cc3nc(-c4ccc5c(c4)OCO5)no3)c2=O)cc1	i
63	Cc1nc2c(sc3cccc(F)c32)c(=O)n1CC(=O)Nc1ccc(F)cc1Cl	i
64	CC(C)CCn1c(C2CC(=O)N(Cc3ccc(F)cc3)C2)nc2ccccc21 (configuration not stated)	i
65	Cc1cc(C)n(-c2cc(SCC(=O)Nc3cccc(C(C)C)c3)ncn2)n1	i
66	COc1cc(NC(=O)c2cn(-c3cc(N(C)C)ncn3)cn2)cc(OC)c1	i
67	Cc1ccc(NC(=O)CSc2cc(N3CCCCC3)ncn2)cc1F	i
68	O=C(CCS(=O)(=O)c1ccccc1)NCC1(CO)CC1	i
69	COc1ccc(/C=C/C(=O)N2CCN(Cc3nc(-c4ccc(F)cc4)cs3)CC2)cc1OC	i
70	C=Cc1ccc(Cn2cc(S(=O)(=O)N3CCCCC3)ccc2=O)cc1	i
71	CCNC(=O)N(Cc1ccoc1)Cc1cccs1	i
72	O=C(Nc1ccncc1)C(=O)NC1CCCC1	i
73	CC(=O)Nc1ccc(NC(=O)CSc2cc(-n3nc(C)cc3C)ncn2)cc1	i
74	COc1ccc(CNC(=O)Nc2ccc3c(c2)N(S(C)(=O)=O)CCC3)cc1OC	i
75	S=C(NC1CCCCC1)c1ccc2c(c1)OCO2	i
76	COc1ccc(N2CCN(S(=O)(=O)c3cn(C)nc3C)CC2)cc1	i
77	COc1ccccc1N1CCN(C(=O)c2ccc(=O)n(Cc3cccc(F)c3)n2)CC1	i
78	COc1ccc2nc(N(CCCn3ccnc3)C(=O)COc3ccc4ccccc4c3)sc2c1	i
79	Cc1ccc(C)c(Nc2c(C(=O)N3CCCC3)cnc3nc(C)ccc23)c1	i
80	C=CCNC(=O)Nc1nc2ccc(SC)cc2s1	i
81	O=C(Nc1nc(-c2ccccc2)ns1)c1ccc(Br)cc1	i
82	O=C(CCc1csc(NC(=O)Nc2cccc(Cl)c2)n1)NCc1cccs1	i
83	O=C(c1ccno1)N1CC(c2nc(-c3cccc(Cl)c3)no2)C1	i
84	O=C(Nc1nc(-c2cccnc2)cs1)C1(c2ccccc2)CCOCC1	i
85	Cc1nn(C2CCS(=O)(=O)C2)c(C)c1N1CCN(C(=O)c2ccc3nc[nH]c3c2)CC1 (configuration not stated)	i
86	CN1CCC(CNC(=O)c2cccc(Cl)c2)CC1	i
87	O=C(Nn1cnc2c(cnn2-c2ccccc2)c1=O)c1ccccc1Br	i
88	OC(COCC1CC2CCC1C2)CN1CCOCC1 (configuration not stated)	i
89	O=S(=O)(NCC1(c2cccs2)CCOCC1)c1ccc2c(c1)OCCO2	i
90	COC(=O)c1ccc(CN2C(=O)N(c3ccc(C)cc3)c3ncccc3S2(=O)=O)o1	i
91	COc1ccc(C2SC(C)C(=O)N2Cc2ccccc2)cc1 (configuration not stated)	i
92	CCc1nnc2c(S(=O)(=O)N(Cc3cccc(Cl)c3)c3ccccc3)cccn12	i
93	O=C(NCc1cnn2ccccc12)c1ccc(F)cc1F	i
94	O=C(NCCc1c[nH]c2ccccc12)c1cc2n(n1)CCCO2	i
95	CS(=O)(=O)c1ccc(Nc2nc(C(=O)Nc3ccc4c(c3)OCO4)cs2)cc1	i
96	CCOC(=O)c1cc2cc3c4c(c2oc1=O)CCCN4CCC3	i
97	Cc1ccc(S(=O)(=O)c2cnc(SCC(=O)Nc3cccc(Cl)c3C)[nH]c2=O)cc1	i
98	Cc1cccc(OCC(=O)NCCc2ccccc2)c1C	i
99	Cc1nc([N+](=O)[O-])cn1CCC(=O)O	i
100	O=C(CCSc1ccccc1)Nc1nc2c(s1)COCC2	i
101	Cn1cc(C(=O)NCc2ccc(S(N)(=O)=O)cc2)nn1	i
102	COC(=O)C1CCN(C(=O)Cn2ccc3ccccc32)CC1	i
103	O=C(NCCc1ccccc1)c1ccc(Nc2nn3c(=O)c4ccccc4nc3s2)cc1	i
104	Cc1ccc(C)c(S(=O)(=O)NC2(C(=O)O)CCCCC2)c1	i
105	COc1cc2[nH]c3c(=O)n(CC(=O)NCCCc4ccccc4)cnc3c2cc1OC	i
106	COCCn1c(C(=O)Nc2ccc(C(C)=O)cc2)cc2c(=O)n(C)c(=O)n(C)c21	i
107	O=C(Cn1ccc2ccccc21)N1CCN(c2ccccc2O)CC1	i
108	CCc1nc2sc(C(c3cccc(F)c3)N3CC(C)OC(C)C3)c(O)n2n1 (configuration not stated)	i
109	COC(=O)c1ccc(NC(=O)COc2nc(C)nc3ccccc23)cc1	i
110	O=C(c1cc(C(F)(F)F)cc(C(F)(F)F)c1)N1CCOCC1CO (configuration not stated)	i
111	COc1ccc(NC(=O)Cc2c(C)nc(SCc3ccccc3F)[nH]c2=O)c(OC)c1	i
112	O=C(NC1CCN(C(=O)c2cn(-c3cccc(Cl)c3)nn2)CC1)c1cccc(Cl)c1	i

# In the list so far, two have a cyano group:
cpd	compound	GIRK2 activ
35	COc1cc(-c2c(C#N)c(N)nc3c2c(C)nn3-c2ccc(C)cc2)ccc1O	i
48	Cc1cc(C)c(C#N)c(SCc2cc(=O)oc3ccc(O)cc23)n1	i

# Next part
cpd	compound	GIRK2 activ
113	CC1CCC(NC(=O)c2ccc(Oc3nccnc3N3CCOCC3)cc2)CC1 (configuration not stated)	i
114	CCCn1c(=O)c2sccc2n2c(CCCC(=O)N3CCN(Cc4ccccc4)CC3)nnc12	i
115	COC(=O)c1ccc2c(=O)n(CCCC(=O)N3CCN(C4CCCCC4)CC3)c(=S)[nH]c2c1	i
116	Cc1ccc(Cn2c(N3CCN(CC(N)=O)CC3)nc3c2c(=O)[nH]c(=O)n3C)cc1	i
117	CCCCCCCCCC[C@H](C(=O)O)[C@]1(C(=O)O)CCC(=O)O1	i
118	COc1cc(C(=O)Nc2nnc(-c3ccccc3SC)o2)cc(OC)c1OC	i
119	O=C(COc1ccc(Cl)cc1Cl)NCCCn1ncccc1=O	i
120	CONC(=O)c1cnn2c1OCCC2	i
121	COC(=O)c1ccc(NC(=O)C(=O)NCCC(O)C2CC2)cc1 (configuration not stated)	i
122	CNC(=O)C1CCC(Cn2c(=O)c3sccc3n(CC(=O)Nc3ccc(F)cc3)c2=O)CC1 (configuration not stated)	i
123	O=C(NCC1CCN(C(=O)Nc2ccc(F)cc2)CC1)C(=O)NCC(F)(F)F	i
124	CCCn1c(=O)c2cc(Cl)ccc2n2c(SCC(=O)Nc3ccc4c(c3)OCCO4)nnc12	i
125	CCCCn1c(=O)c2c(nc3n(-c4ccccc4N)c(C)cn23)n(C)c1=O	i
126	Cc1cc(CCNC(=O)Cc2ccc(S(=O)(=O)C(C)C)cc2)on1	i
127	NC(=O)c1csc(Nc2ncccn2)n1	i
128	Cc1cccc(NC(=O)Cn2c3ccc(C)cc3c3ncn(Cc4nc(C5CC5)no4)c(=O)c32)c1	i
129	O=C(NCc1cccs1)NCC1(CO)CC1	i
130	CCOc1ccc(C(=O)N2CCN(c3ncnc4c3nnn4-c3ccc(C)cc3)CC2)cc1OCC	i
131	COc1ccc(NC(=O)CCCS(=O)(=O)Cc2ccccc2)cc1	i
132	O=C1CN(c2ccccc2NS(=O)(=O)c2ccccc2F)CCN1	i
133	O=C(Nc1nc(-c2cc3ccccc3o2)cs1)c1ccc(S(=O)(=O)N2CCOCC2)cc1	i
134	Cc1ccc2ncnc(NCC(=O)O)c2c1	i

# These rows are one share of the data; count on the stated rates, not on these rows.
